Compound activity: PubChem, National Center for Advancing Translational Sciences (NCATS)
Mito fusion yeast: blocks mitochondrial division or promotes mitochondrial fusion. 320,000 tested, 0.23% active. S. cerevisiae fusion-defective mutant growth rescue, CellTiterGlo 48 h. AID 485298. Potency, µM (series often up to 46.1 µM), without a hit: at the top dose growth rescue (activation), actives largely listed as activators;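 note: potency is the fitted concentration of half-maximal effect; % of control where 0% means no effect; nearly all actives have a fitted effect of over 45% in size; temperature-sensitive fusion mutants such as fzo1-1 at 37 °C on non-fermentable ethanol glycerol medium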
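Compounds are tested for their ability to restore growth of mitochondrial fusion-defective yeast strains at non-permissive 37C in YPEG medium over 48 hours. Viability is quantified by luciferase luminescence.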
ELG1 DNA repair: ELG1-dependent DNA repair inhibition | HEK293T ELG1-luciferase reporter, luminescence, 16 h; DNA damage induced by 5-fluorouridine | Potency, µM (titrated, usually from 46.1 µM), without a hit: top-dose activity change, negative = inhibition, usual class: inhibitors | 330,000 tested, 2.3% active | AID 504467; note: potency is the fitted concentration of half-maximal effect; % is set by controls: 0 for no effect and ±100 for the full control effect; nearly all actives have a fitted effect of over 55% in size
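Reporter activity after DNA damage by 5-fluorouridine is monitored. Compound-treated cells incubate 16 hr at 37 °C, then ONE-Glo is added for 30 min before luminescence reading.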
PKM2 activator: activators of human pyruvate kinase M2 | purified PKM2, Kinase-Glo ATP luminescence, activation; response scale: 0% is enzyme alone, no compound | P14618 | Potency, µM (series often up to 57.5 µM), inactives show at the top dose activation, actives largely listed as activators | AID 1631 | 260,000 tested, 0.34% active; note: potency is the fitted concentration of half-maximal effect; % is set by controls: 0 for no effect and ±100 for the full control effect; nearly all actives have a fitted effect of over 55% in size
Target sequence (P14618 whole entry, looked up): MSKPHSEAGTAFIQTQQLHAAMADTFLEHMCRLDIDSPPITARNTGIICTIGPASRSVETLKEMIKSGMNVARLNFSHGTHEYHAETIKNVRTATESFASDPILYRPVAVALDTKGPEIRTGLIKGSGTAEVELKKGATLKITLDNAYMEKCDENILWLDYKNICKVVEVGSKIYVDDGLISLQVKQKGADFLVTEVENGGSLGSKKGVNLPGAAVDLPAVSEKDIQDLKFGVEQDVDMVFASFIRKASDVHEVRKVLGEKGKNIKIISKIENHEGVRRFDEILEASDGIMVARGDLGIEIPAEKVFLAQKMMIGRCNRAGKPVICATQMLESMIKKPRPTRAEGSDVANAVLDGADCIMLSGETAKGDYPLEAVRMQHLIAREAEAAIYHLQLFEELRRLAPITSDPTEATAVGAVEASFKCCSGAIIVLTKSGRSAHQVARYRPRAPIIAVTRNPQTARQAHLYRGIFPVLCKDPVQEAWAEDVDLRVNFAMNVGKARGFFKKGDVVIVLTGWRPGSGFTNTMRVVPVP
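hPK-M2, >95% pure; 0.1 mM ADP / 0.5 mM PEP final; imidazole pH7.2 buffer w/ 7 mM MgCl2, 50 mM KCl; 1 h RT; Kinase-Glo lum. Intermediate enzyme activity for dual inhibitor/activator qHTS.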
Rab9 promoter act: activates the Rab9 promoter; Potency, µM (top dose mostly 9.22 µM), for the others: at the highest dose activation, negative = inhibition, hits mostly activators; 320,000 tested, 2.8% active; Huh7 Rab9 promoter-luciferase reporter, luminescence, 24 h; note: potency is the fitted concentration of half-maximal effect; % of control where 0% means no effect; nearly all actives have a fitted effect of over 60% in size
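Huh7 cells stably carrying Rab9 promoter–luciferase reporter, plated 1500 cells/well, compound added after 2 h and incubated 24 h at 37 °C; luciferase luminescence then read after 10 min with detection reagent.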
MBNL1 CUG block: MBNL1-poly(CUG) RNA binding inhibition; 280,000 tested, 0.036% active; Potency, µM (series often up to 57.5 µM), for the others: top-dose activity change, negative = inhibition, most hits filed as inhibitors; Q9NR56; TR-FRET MBNL1-His/biotin-(CUG)12 binding, 665/545 ratio; active = well fitted inhibition curve with a large enough effect in the signal ratio, with a control signal flat, not every such curve was filed as active; inconclusive = small, poorly fitted or top-dose-only effect, or effect the other way, or a change in a side signal; inactive = no such curve, though single readings can be large or run the other way; the % refers to the signal ratio; note: potency is the fitted concentration of half-maximal effect; % is set by controls: 0 for no effect and ±100 for the full control effect
Target sequence (Q9NR56 whole entry, looked up): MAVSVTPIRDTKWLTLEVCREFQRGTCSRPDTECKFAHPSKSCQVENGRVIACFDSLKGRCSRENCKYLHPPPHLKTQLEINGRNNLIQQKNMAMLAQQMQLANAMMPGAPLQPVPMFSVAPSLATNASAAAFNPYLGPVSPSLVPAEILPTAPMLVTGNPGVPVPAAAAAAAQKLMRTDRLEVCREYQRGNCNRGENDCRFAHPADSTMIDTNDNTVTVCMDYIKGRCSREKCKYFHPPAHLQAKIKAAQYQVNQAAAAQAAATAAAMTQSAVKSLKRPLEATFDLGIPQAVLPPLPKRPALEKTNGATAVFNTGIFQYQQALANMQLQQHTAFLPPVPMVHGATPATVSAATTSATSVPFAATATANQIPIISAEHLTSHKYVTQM
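Inhibition of protein-RNA binding appears as loss of TR-FRET between terbium anti-His antibody on MBNL1-His and streptavidin-XL665 on biotin-(CUG)12. Activity is normalized to buffer-only and uninhibited-complex controls.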
FLuc counter: inhibits or activates purified firefly luciferase, miR-21 counter-screen | P08659 | purified FLuc, Km substrates, luminescence inhibition | Potency, µM (series often up to 57.5 µM), inactives show top-dose activity change, negative = inhibition, most hits filed as inhibitors | 360,000 tested, 6.9% active | AID 588342;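 note: potency is the fitted concentration of half-maximal effect; plate controls were vehicle for no effect and reference inhibitor for full effect; nearly all actives have a fitted effect of over 55% in size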
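Purified P. pyralis luciferase (10nM final) with 10uM D-luciferin and 10uM ATP (Km levels) in 50mM Tris acetate pH 7.5, 10mM Mg acetate, 0.01% Tween-20, 0.05% BSA; qHTS 6-point titration, ~60 µM downward; luminescence read.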
VP16 counter: counter-screen for ROR gamma inhibitors: Gal4-VP16 reporter | Drosophila S2 Gal4-VP16 UAS-luciferase, luminescence, 20 h | Potency, µM (doses to about 53.6 µM), without a hit: at the highest dose activity, negative = inhibition, usual class: inhibitors | 310,000 tested, 3.5% active | AID 2546;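 note: Gal4-VP16 expression switched on by copper sulfate through the metallothionein promoter; potency is the fitted concentration of half-maximal effect; % is set by controls: 0 for no effect and ±100 for the full control effect; nearly all actives have a fitted effect of over 50% in size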
Menin MLL FP TR: inhibitors of human menin-MLL interaction, mutant MLL peptide; O00255; Menin + Texas Red MLL mutant peptide, fluorescence polarization; Potency, µM (highest dose often 61.6 µM), for the others: at the top dose FP activity change, negative = inhibition, hits mostly inhibitors; 270,000 tested, 0.23% active; active = well fitted inhibition curve with a large enough effect in the polarisation, with a control signal flat, not every such curve was filed as active; inconclusive = small, poorly fitted or top-dose-only effect, or effect the other way, or a change in a side signal; inactive = no such curve, though single readings can be large or run the other way; the % refers to the polarisation; note: potency is the fitted concentration of half-maximal effect; % of control where 0% means no effect; many of its hits are not listed in these tables
KCNH2 3.1 block: KCNH2 3.1 (human) potassium channel inhibition | 340,000 tested, 0.95% active | U2OS KCNH2 3.1, thallium flux FluxOr; stronger effect = lower value | activity change, % (tested at about 1.8 µM);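 active = maximum activity change below -70%; inconclusive = maximum activity change from -70% to -50%; inactive = maximum activity change above -50%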;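 note: thallium influx rate constant from kinetic fluorescence after stimulation buffer; % is set by controls: 0 for no effect and ±100 for the full control effect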
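Kinetic fluorescence (2 min after stimulation buffer) measures Tl+ influx through KCNH2 3.1 expressed by viral transduction in U2OS cells; the rate constant is normalized against DMSO controls serving as positive and negative references.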
NPC1 prom act: NPC1 promoter activation. Huh7 NPC1 promoter luciferase reporter, 24 h. AID 485313. Potency, µM (highest dose often 9.22 µM), for the others: at the top dose activation, actives largely listed as activators. 320,000 tested, 2.4% active;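 note: potency is the fitted concentration of half-maximal effect; % of control where 0% means no effect; nearly all actives have a fitted effect of over 60% in size; reporter is driven by a mutant NPC1 promoter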
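Luminescence from an NPC1 promoter-driven luciferase reporter in stably transfected Huh7 cells was measured after 24 h compound treatment at 37 °C, followed by 10 min ambient incubation with luciferase detection reagent.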
Starred values were filed as active, the others as inactive; u = inconclusive; x = no result given; [ ] = dose if it differs, or a comment. Unless noted, calls come from the whole dose curve; as a rule, active = well fitted curve in the direction sought with a large enough effect; inconclusive = small, poorly fitted or top-dose-only effect, or another doubt; inactive = no such curve, though single readings can be large; an effect the other way counts as inactive or inconclusive. An excerpt, so the mix of outcomes need not match the whole.

Keys – A = Mito fusion yeast; B = ELG1 DNA repair; C = PKM2 activator; D = Rab9 promoter act; E = MBNL1 CUG block; F = FLuc counter; G = VP16 counter; H = Menin MLL FP TR; I = KCNH2 3.1 block; J = NPC1 prom act
Compound: COc1ccc(CCN(C)CC(=O)Nc2cc(C)nc3ccccc23)cc1OC
  A = -8.8%; B = u; C = 10.8%; D = -3.7%; E = -1.6%; F = -1.7%; G = -26.1%; H = -13.7%; I = 2.3; J = -2.2%

Compound: COc1ccccc1CN(C)CC(=O)Nc1ccc(Cl)cc1C(F)(F)F
  A = 3.2%; B = 4.8%; C = 0.3%; D = -3.4%; E = 0.9%; F = -18.3%; G = -14.2%; H = -4.4%; I = 3.1; J = -3.8%

Compound: Cc1cc(OCC[N+]2(C)CCCCC2)nc2ccccc12
  A = 0.9%; B = -27.9%; C = -1.2%; D = 12.0%; E = 2.3%; F = -0.9%; G = -27.6%; H = 4.9%; I = -2.0; J = 6.2%

Compound: CCN(Cc1ccncc1)Cc1ccc(Br)cc1
  A = -6.3%; B = 0.7%; C = -0.7%; D = -2.3%; E = 3.1%; F = -0.9%; G = 0.1%; H = 1.3%; I = 1.4; J = -1.9%

Compound: COc1ccc(CNc2ncc(-c3ccccc3)n2C)c2ccccc12
  A = -13.8%; B = -2.1%; C = u; D = -1.5%; E = -1.4%; F = u; G = -8.4%; H = -22.7%; I = -24.5; J = -0.2%

Compound: O=[N+]([O-])c1cccc(OCCN2CCC(Cc3ccccc3)CC2)c1
  A = -10.5%; B = -3.2%; C = 7.7%; D = 0.0%; E = u; F = 3.7%; G = -5.4%; H = -4.7%; I = -70.5*; J = -3.6%

Compound: CC(NCc1ccc2c(c1)OCO2)C(=O)NC1CCCCC1 (stereo unspecified)
  A = -3.3%; B = -17.8%; C = -1.9%; D = -0.2%; E = 0.4%; F = -2.2%; G = -5.7%; H = -1.7%; I = -3.8; J = -2.3%

Compound: COc1cccc(CN2CCN(S(=O)(=O)c3ccc(NC(C)=O)cc3)CC2)c1OC
  A = 3.2%; B = u; C = 6.0%; D = -7.7%; E = 0.6%; F = -0.8%; G = 3.4%; H = u; I = -1.1; J = -5.9%

Compound: O=C(CN1CCN(c2ccccn2)CC1)Nc1ccc(F)cc1
  A = 0.8%; B = 2.9%; C = -8.0%; D = -0.8%; E = 0.3%; F = 0.6%; G = -9.4%; H = -7.0%; I = 3.4; J = 1.8%

Compound: CN(C)c1ccc(NC(=O)CN2CCC(N3CCCCC3)CC2)cc1
  A = -2.2%; B = 2.8%; C = -4.1%; D = 2.0%; E = 4.4%; F = 1.1%; G = -2.6%; H = 14.3%; I = 13.0; J = 0.3%

Compound: Cn1c(-c2ccccc2)cnc1NCc1ccc(-c2ccccc2)cc1
  A = 0.6%; B = -6.2%; C = 3.4%; D = 3.1%; E = -2.8%; F = -18.7%; G = -29.2%; H = -21.6%; I = -5.0; J = 1.5%

Compound: C[n+]1ccccc1/C=C/c1ccc([N+](=O)[O-])cc1
  A = u; B = -15.1%; C = x; D = -36.5%[inhibitor]; E = u; F = 4.2%; G = -6.2%; H = -20.9%; I = 1.6; J = -15.2%

Compound: Cc1ccc(Cl)cc1N1CCN(CC(O)COCc2ccco2)CC1 (stereo unspecified)
  A = 6.4%; B = -15.7%; C = 1.4%; D = -6.1%; E = 5.9%; F = 7.8%; G = 2.8%; H = -9.8%; I = x; J = -5.4%

Compound: O=C(CNCC1CCCO1)Nc1ccc(N2CCCCCC2)cc1 (stereo unspecified)
  A = 1.2%; B = 12.6%; C = -14.7%; D = -1.9%; E = 7.9%; F = 1.1%; G = -8.8%; H = 14.1µM*; I = -0.6; J = 6.2%

Compound: CCN(CC)C(=O)C1CCN(Cc2ccc(OCc3ccccc3)cc2)CC1
  A = -5.2%; B = -7.0%; C = 0.7%; D = 0.2%; E = 1.9%; F = 2.7%; G = 5.8%; H = -2.1%; I = 5.3; J = 8.3%

Compound: Cc1cc(OCCCN2CCN(Cc3ccccc3)CC2)ccc1[N+](=O)[O-]
  A = 9.7%; B = u; C = 8.2%; D = -10.9%; E = 1.4%; F = 3.9%; G = 3.0%; H = u; I = -16.6; J = -1.5%

Compound: CC1=CC(C)C2C(=O)N(CCC[N+](C)(C)C)C(=O)C2C1 (stereo unspecified)
  A = 0.7%; B = 1.8%; C = 7.7%; D = 0.5%; E = -10.8%; F = 4.3%; G = 5.2%; H = 2.2%; I = -14.5; J = -3.0%

Compound: COc1ccc(C(OCC(O)CNCCc2ccccc2)c2ccc(OC)cc2)cc1 (stereo unspecified)
  A = -38.7%[inhibitor]; B = 5.5%; C = x; D = -1.0%; E = -19.0%; F = 0.3%; G = -12.8%; H = u; I = -19.1; J = 0.4%

Compound: Cc1cc(F)ccc1NCc1cc2c(cc1[N+](=O)[O-])OCO2
  A = 5.7%; B = u; C = -1.6%; D = -3.7%; E = u; F = 1.5%; G = 7.0%; H = u; I = -5.8; J = -5.5%

Compound: O=C(C1CCCN(CCCc2ccccc2)C1)N1CCCCCC1 (stereo unspecified)
  A = -0.5%; B = -1.0%; C = -3.7%; D = -5.7%; E = 3.8%; F = -1.7%; G = -0.5%; H = -4.0%; I = -2.0; J = 0.4%

Compound: CCc1ccccc1OCCCCN1CCCCC1
  A = -2.3%; B = -5.5%; C = -2.9%[11.5 µM]; D = -6.7%; E = 4.3%; F = 3.2%; G = 14.9%; H = u; I = 1.2; J = -2.0%

Compound: Fc1ccc(Sc2ccccc2CNC2=NCCN2)cc1
  A = -14.4%; B = u; C = 2.9%; D = -27.1%; E = -17.1%; F = -3.0%; G = -10.2%; H = 0.9%; I = -4.7; J = -14.2%

Compound: Cc1ccc2c(c1)S/C(=C/c1ccc[n+](CCO)c1)N2C
  A = 8.7%; B = 2.91µM*; C = -9.1%; D = -20.5%; E = u; F = 4.9%; G = 12.6%; H = 5.4%; I = 6.1; J = -16.4%

Compound: CC1CC(C)CN(C(=O)C(C)N(C)CC(=O)Nc2ccc(Cl)cc2)C1 (stereo unspecified)
  A = 12.5%; B = u; C = 3.8%; D = -5.2%; E = -5.2%; F = 2.6%; G = 0.8%; H = -0.7%; I = 4.1; J = -8.1%

Compound: Clc1ccc(CN2CCN(c3ncccn3)CC2)c(Cl)c1
  A = 3.1%; B = 3.2%; C = -9.8%; D = -3.5%; E = -5.8%; F = -6.4%; G = -1.6%; H = -13.4%; I = 1.4; J = -1.0%

Compound: CC(=O)Nc1ccc(S(=O)(=O)N2CCC(N3CCCCCC3)CC2)cc1
  A = -1.6%; B = 6.7%; C = 0.0%; D = -3.6%; E = -23.5%; F = -0.6%; G = 0.2%; H = 12.5%; I = 9.1; J = 1.1%

Compound: O=C(O)CCCCC(=O)O
  A = x; B = x; C = x; D = x; E = x; F = x; G = 11.6%; H = -1.6%; I = x; J = x

Compound: Cc1ccc(CNc2ncc(-c3ccccc3)n2C)o1
  A = -11.8%; B = 7.0%; C = 13.2%; D = 12.5%; E = -9.8%; F = -11.5%; G = 4.0%; H = u; I = -10.2; J = 2.7%
